LYP phosphatase: PTPN22 lymphoid phosphatase activity blockers – biochemical, fluorescence intensity, uHTS (AID 1779); inhibition, % at 11.5 µM; hits with a dose series show IC50 in µM; hit rate 0.054% among 290,000; recombinant LYP phosphatase, fluorescence intensity; higher % means a stronger effect; in the data active = inhibition above about 50%;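 also: plate controls were vehicle with enzyme for no effect and no enzyme for full effect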
Myeloid diff MLP: myeloid differentiation induction. ER-HoxA9 myeloid progenitors, lysozyme-GFP differentiation, flow cytometry. calls only at 10 µM. hit rate 1% among 360,000. AID 624256;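 active = normalized GFP-positive differentiation at or above the plate's own cutoff, the solvent-only control mean plus 3 SD; inconclusive = no clear call, values can overlap the other calls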;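 also: cells exposed to compound for four days before flow analysis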
Siah-1 displacement: Siah-1 peptide-binding antagonists, primary screen, biochemical, fluorescence polarization, rhodamine-plectin, uHTS (AID 1817). Siah-1 / rhodamine-plectin peptide fluorescence polarization; higher % means a stronger effect. displacement, % at 20 µM; hits with a dose series show IC50 in µM. hit rate 0.02% among 290,000;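 active = displacement of at least 50% at 20 µM, with a fluorescence ratio check between 0.3 and a set limit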;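 also: plate controls were Siah plus tracer with DMSO for no effect and tracer alone without Siah for full effect; strong numbers were not always called active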
XIAP antagonists: small molecules displacing peptide from XIAP – biochemical, IAP family, fluorescence polarization (AID 1018) | XIAP BIR domain, fluorescence polarization peptide displacement; higher % means a stronger effect | displacement, % at 20 µM; hits with a dose series show IC50 in µM | hit rate 0.007% among 200,000; in the data active = displacement above about 50%; also: a part of the inactive calls stands beside numbers as strong as those of hits
AID2073: inhibitors of Mint1-CaV2.2 protein interaction, biochemical, HTRF (AID 2073); HTRF protein-protein interaction, Mint1-CaV2.2; higher % means a stronger effect; one-dose inhibition, % at 20 µM; IC50 in µM for titrated hits; hit rate 0.19% among 290,000; in the data active = inhibition mostly above about 51%, no sharp cut-off; inconclusive = no clear call, values can overlap the other calls; inactive = mostly below about 53%; also: some results filed as inactive read as strong as hits
Myeloid diff MLP GFP+ MAC1+ %: second read-out of Myeloid diff MLP, no call of its own (marks repeat the call); GFP+ MAC1+ double positive, %; measured here: differentiation confirmed by MAC1 staining
The depositor's hits bear a star; i = inactive; ? = inconclusive; · = no result given; + = active, no number; & = joins results of further samples. An excerpt. The share of hits here may be higher or lower than overall.

1. O=C(O)C1CCN(S(=O)(=O)/C=C/c2ccccc2)CC1
2. COc1c2occc2cc2ccc(=O)oc12
3. CN1[C@@H]2CC[C@H]1CC(OC(=O)[C@H](CO)c1ccccc1)C2 (some centres undefined)
4. CC1=NOC(=O)/C1=C/c1ccc2c(c1)OCO2
5. CN1[C@@H]2CC[C@H]1CC(OC(=O)C(CO)c1ccccc1)C2 (some centres undefined)
6. O=C(O)c1cccnc1Sc1ccc(Cl)cc1
7. Cc1c2cc(O)c(=O)cc-2oc2cc(O)c(O)cc12
8. Cc1ccccc1C(=O)N/N=C/c1ccc(Sc2ccccn2)o1
9. Cc1cc(NS(=O)(=O)c2ccc(N)cc2)no1
10. CC(C)(C)NC(=O)[C@@H]1C[C@@H]2CCCC[C@@H]2CN1C[C@@H](O)[C@H](Cc1ccccc1)NC(=O)[C@H](CC(N)=O)NC(=O)c1ccc2ccccc2n1
11. CCCCNc1ccc(C(=O)O)cc1

assay / compound	1	2	3	4	5	6	7	8	9	10	11
LYP phosphatase	-8.9%	-1.7%	-8.3%	0.8%	-2.2%	-0.4%	-7.0%&1.6%	1.0%	-0.9%	-9.1%	-4.6%
Myeloid diff MLP	i	i	i	i	i	i	+	i	i	i	i
Myeloid diff MLP GFP+ MAC1+ %	8.3	3.1	1.6	0.1	1.8	0.7	2.1*	0.4	2.4	3.2&2.2	0.2
Siah-1 displacement	4.5%	3.5%	4.7%	3.4%	3.2%	3.5%	99.1%&70.1%	4.7%	2.8%	-6.7%	-1.7%
XIAP antagonists	-25.0%	-4.7%	·	-7.3%	-6.1%	-1.9%	79.8%	9.7%	-9.1%	·	·
AID2073	3.9%	6.3%	7.1%	14.2%	1.0%	10.6%	?	6.3%	2.2%	8.9%	4.8%

From compound 1 up to 5, as listed above:
1. O=C(O)C1CCN(S(=O)(=O)/C=C/c2ccccc2)CC1
2. COc1c2occc2cc2ccc(=O)oc12
3. CN1[C@@H]2CC[C@H]1CC(OC(=O)[C@H](CO)c1ccccc1)C2 (some centres undefined)
4. CC1=NOC(=O)/C1=C/c1ccc2c(c1)OCO2
5. CN1[C@@H]2CC[C@H]1CC(OC(=O)C(CO)c1ccccc1)C2 (some centres undefined)

assay / compound	1	2	3	4	5
LYP phosphatase	-8.9%	-1.7%	-8.3%	0.8%	-2.2%
Myeloid diff MLP	i	i	i	i	i
Myeloid diff MLP GFP+ MAC1+ %	8.3	3.1	1.6	0.1	1.8
Siah-1 displacement	4.5%	3.5%	4.7%	3.4%	3.2%
XIAP antagonists	-25.0%	-4.7%	·	-7.3%	-6.1%
AID2073	3.9%	6.3%	7.1%	14.2%	1.0%

Arranged by value in Myeloid diff MLP GFP+ MAC1+ % (lowest first): 3 of the compounds above.
nr | Compound | LYP phosphatase | Myeloid diff MLP GFP+ MAC1+ % | Siah-1 displacement | XIAP antagonists | AID2073
4 | CC1=NOC(=O)/C1=C/c1ccc2c(c1)OCO2 | 0.8% | 0.1 | 3.4% | -7.3% | 14.2%
6 | O=C(O)c1cccnc1Sc1ccc(Cl)cc1 | -0.4% | 0.7 | 3.5% | -1.9% | 10.6%
1 | O=C(O)C1CCN(S(=O)(=O)/C=C/c2ccccc2)CC1 | -8.9% | 8.3 | 4.5% | -25.0% | 3.9%

Bioassay records: PubChem, several laboratories
